motility: Vibrio cholerae motility inhibitors, OD read-out (AID 588778); Vibrio cholerae motility, OD read-out; higher % means a stronger effect; test concentration not given here; primary cut-off and reference of the scale not given here; strong numbers were not always called active; one-dose inhibition, %; IC50 in µg/mL for titrated hits; 10,000 tested, under 10 active; in the data active = confirmed in a dose series
motility viability: also measured in motility; calls as there; inhibition, %; measured here: bacterial viability at 10 ug/mL;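 higher means fewer living bacteria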
The depositor's hits bear a star.

Start of the listing, in advance:
SMILES	motility	motility viability
Cc1ccc(-c2nn(CCC(=O)N3CCC(Cc4ccccc4)CC3)c(=O)c3ccccc23)cc1	-3%	10
O=C(NC(=S)N1CCOCC1)c1cc2ccccc2o1	5%	-6
CC1CN(CCCCOc2ccc(Cl)cc2)CC(C)O1 (centres undefined)	5%	-2

Results, previewed entries included:
SMILES	motility	motility viability
Cc1ccc(-c2nn(CCC(=O)N3CCC(Cc4ccccc4)CC3)c(=O)c3ccccc23)cc1	-3%	10
O=C(NC(=S)N1CCOCC1)c1cc2ccccc2o1	5%	-6
CC1CN(CCCCOc2ccc(Cl)cc2)CC(C)O1 (centres undefined)	5%	-2
CN(C)c1cccc(C(=O)NCc2cccnc2)c1	11%	4
Cc1ccc(-c2cc3ccccn3c2C(=O)CSc2nnc(C)s2)cc1	-16%	-5
Cc1cc(C)nc(NCc2ccc(Cl)cc2)n1	-3%	-3
Cc1cc(=O)[nH]c(SCC(=O)c2cc(C(C)(C)C)c(O)c(C(C)(C)C)c2)n1	1%	-2
O=C(Cc1c(F)cccc1Cl)Nc1nnc(C2CCCCC2)s1	-16%	-4
Nc1ncnc(NCCc2c[nH]c3ccccc23)c1[N+](=O)[O-]	97%	100
O=C1CCC(=O)N1OCCCOc1cccc(Oc2ccccc2)c1	11%	35
CN(C(=O)Oc1ccc(OC(=O)c2ccccc2)cc1)c1ccccc1	-2%	6
CCOC(=O)Cc1cc(=O)[nH]c(/N=C(\N)Nc2ccc(OCC)cc2)n1	-33%	-13
O=c1oc2ccccc2c2c1C(c1cccs1)Nc1ccc3ccccc3c1-2 (centres undefined)	-12%	-9
COc1cc(Cl)c(C)cc1NC(=O)C(F)(F)F	2%	0
CC(Sc1nc2ccc(I)cc2c(=O)n1-c1ccccc1)C(=O)N1CCOCC1 (centres undefined)	4%	6
O=C(NC(=S)NCCN1CCOCC1)c1ccccc1Cl	29%	10
CC(C)CC(=O)N1CCN(c2c(F)c(F)c(F)c(F)c2F)CC1	-5%	1
O=C(NCCCn1ccnc1)c1cc(Br)ccc1Cl	14%	31
O=c1c2ccccc2nc(CSc2nnnn2C2CCCCC2)n1-c1cccc(C(F)(F)F)c1	-6%	0
COc1ccc(CCNC(=O)CCSc2nc(-c3ccco3)cc(C(F)(F)F)n2)cc1OC	13%	1
COC(=O)Nc1nc(-c2cc(Cl)ccc2Cl)cs1	8%	-10
COc1cc(NC(=O)C(=O)NNC(=O)C2CCCCC2)c(OC)cc1Cl	14%	29
Cc1cc(C)nc(NS(=O)(=O)c2ccc(Nc3nc(C)c(C(=O)Nc4ccccc4)s3)cc2)n1	13%	4
Cc1nn2c(nc1=O)SCC2(O)c1ccccc1 (centres undefined)	-8%	-7
COC(=O)CSc1nnc(Cc2ccc(OC)cc2)s1	-5%	-2
CCOC(=O)N1CCN(C(=O)c2cc3cc(Br)ccc3oc2=O)CC1	26%	16
Cc1nn(C)c(C)c1NC(=O)CSc1nc2ccccc2c(=O)n1CCc1ccccc1	-6%	-3
CC1CN(C(=O)CCC2CCCCC2)CC(C)O1 (centres undefined)	-4%	0
O=[N+]([O-])c1ccc(Sc2n[nH]c(-c3ccccc3)n2)nc1	15%	22
CCOC(=O)Cc1cc(=O)[nH]c(/N=C(\N)Nc2ccc(C)c(C)c2)n1	-6%	-4
CCCn1nnc(NC(=O)c2sc3ccccc3c2Cl)n1	22%	31
C=CCCC(C)(C#CCN1CCCCC1)OC(C)=O (centres undefined)	-5%	-8
O=C(CN1CCOCC1)NNC(=S)Nc1ccc(Cl)cc1	-4%	-1
O=C1c2ccccc2C(=O)N1S(=O)(=O)c1ccccc1	9%	0
CCOc1ccc(/C=C(/C#N)c2nc3ccccc3[nH]2)cc1I	-3%	2
CCN1C(=O)/C(=C2/C(=O)N(c3ccc4ccccc4c3)N=C2C)c2cc([N+](=O)[O-])ccc21	23%	2
CCOc1ccccc1N1CCN(C(=S)Nc2cccc(C(C)=O)c2)CC1	-7%	-5
NC(=O)COc1ccc(CNC2CCCC2)cc1	-6%	-5
CC(Oc1ccccc1F)C(=O)NCc1ccc2c(c1)OCO2 (centres undefined)	3%	1
O=C(Nc1ccc2[nH]c(=O)[nH]c2c1)c1cc2ccccc2o1	14%	-4
Nc1nc(-n2cnnc2)nn1-c1ccccc1	-29%	-1
CC(C)CC(=O)NCCNC(=O)c1ccccc1F	7%	3
O=S(=O)(c1ccccc1)N1N=C(c2cccs2)CC1c1ccc(F)cc1 (centres undefined)	-4%	-8
Cc1ccc(-c2csc3nc(SCc4c(C)noc4C)n(-c4ccccc4)c(=O)c23)o1	4%	0
Cc1ccc(NC(C#N)c2c(C)[nH]c(=O)[nH]c2=O)cc1 (centres undefined)	5%	0
CCOC(=O)N1CCN(CCC(=O)Nc2ccc(Br)c(C)c2)CC1	11%	2
Cc1ccc(Cc2cncc(O)c2)cc1	26%	9
Cc1ccc2[nH]c3c(c2c1)CN(C)CC3	9%	2
O=C1CC(N2CCSCC2)C(=O)N1CCc1ccccc1 (centres undefined)	-4%	-5
Fc1ccccc1CN1CCN(CC2CC=CCC2)CC1 (centres undefined)	16%	5

(further entries)
SMILES	motility	motility viability
O=C(C1CCN(Cc2ccc3c(c2)OCO3)CC1)N1CCN(c2ccccc2F)CC1	21%	-1
CCOC(=O)c1ccc(N=C(N)N=C(N)N)cc1	8%	-2
O=C(CSc1nnc(-c2ccc([N+](=O)[O-])cc2)n1Cc1ccccc1)N1CCOCC1	-10%	2
COC(=O)c1ccc(Cl)c(NC(=O)CN(c2ccccc2)S(=O)(=O)N(C)C)c1	10%	7
O=C(CCc1nc2ccccc2[nH]c1=O)OCc1c(F)cccc1Cl	-15%	-1
Cc1ccnc(NS(=O)(=O)c2ccc(Br)s2)c1	-8%	1
O=C1NC(=O)C2C1C(c1cccs1)=NN2Cc1ccccc1 (centres undefined)	3%	-6
CC1(C)Cc2c(sc3nc(SCC(=O)c4ccc(Cl)cc4)nc(N)c23)CS1	-3%	1
O=C(CCC(=O)OCC(F)(F)C(F)F)NCc1ccccc1	-27%	-20
CC(=O)c1cccc(NC(=O)COC(=O)c2cc(C)nc3ccccc23)c1	-4%	-1
NS(=O)(=O)c1ccc(NC(=O)CSc2ccc3ccccc3n2)cc1	4%	-6
Brc1ccc(C=NN2CCN(C3c4ccccc4-c4ccccc43)CC2)s1	-1%	-1
CCOCC(=O)N1CCN(c2ccc(F)cc2)CC1	12%	2
CCOC(=O)c1c(NC(=O)c2ccc(Br)o2)sc(C(N)=O)c1C	-26%	-13
O=C(O)CN(CCc1ccccc1)CC(=O)O	-1%	-3
O=C(O)CCNC(=O)c1cncc(O)c1	-5%	-7
COc1ccccc1C1=NN(S(C)(=O)=O)C(c2ccco2)C1 (centres undefined)	1%	-4
CCC1(C)Cc2ccccc2-c2c1c(=O)n(-c1ccc(C)cc1)c1nnnn21 (centres undefined)	1%	2
Cc1cn(S(=O)(=O)c2cc(C)c(Cl)cc2C)cn1	-12%	-10
CC(=O)CC(NC(=S)N1CCOCC1)c1ccccc1 (centres undefined)	-12%	6
Cc1c(C(=O)NC(=S)Nc2ccc(N3CCN(C(=O)c4cccs4)CC3)c(Cl)c2)cccc1[N+](=O)[O-]	-7%	-10
CCOC(=O)c1cc(CC)sc1NC(=O)C1CC(=O)NN1Cc1ccccc1 (centres undefined)	-1%	-5
COc1cccc(OC)c1C(=O)Oc1ccc2c(-c3ccccc3)cc(=O)oc2c1C	-3%	-10
CC(=O)Nc1ccc(-c2nc(-c3ccccc3)nc3ccccc23)cc1	-13%	-7
COC(=O)c1cc(-c2ccccc2)sc1NC(=O)c1c(C)noc1C	11%	2
CC(=O)Nc1ccc(-n2c(C)ccc2C)cc1	1%	0
O=C(Nc1cnccn1)Nc1ccc(F)cc1F	7%	-1
Brc1ccc(OCc2nc3ccccc3s2)cc1	-15%	-10
Cc1ccc(C(=O)COC(=O)c2cccc(Br)c2)cc1[N+](=O)[O-]	5%	-2
COc1ccc(S(=O)(=O)Nc2cc(C)cc(C)n2)c2ccccc12	16%	18
O=c1[nH]c(-c2ccc(Br)cc2)nc2c1cnn2-c1ccccc1	-25%	-4
Cc1c(C)c2ccc(OS(C)(=O)=O)c(C)c2oc1=O	14%	2
COc1ccc(Cl)cc1NC(=S)NCCC1=CCCCC1	14%	0
CCc1cccc(C)c1NC(=O)CSC(C)c1nc2ccccc2c(=O)[nH]1 (centres undefined)	2%	-2
O=C1c2cccc3cccc(c23)C(=O)N1CC1CCN(S(=O)(=O)c2cccc3cccnc23)CC1	-15%	-3
Cc1oc(-c2nc3ccccc3n2C)cc1C=O	12%	5
Cc1cc(C)c2ccc(C(=O)O)nc2c1O	31%	10
CC(=O)c1cnc2nc(C(F)(F)F)nn2c1C	9%	4
Cc1ccc(S(=O)(=O)NC2(C(F)(F)F)C(=O)Nc3c2c(=O)[nH]c(=O)n3Cc2ccco2)cc1 (centres undefined)	1%	-1
O=C(NC1CCCCC1)c1cc(S(=O)(=O)N2CCOCC2)cs1	-42%	3
O=C(Nc1nc2c(s1)CCCC2)C(=O)c1c[nH]c2ccccc12	0%	20
O=C(O)/C=C/C(=O)Nc1cccc(F)c1	-5%	1
NC(=O)c1c(NC(=O)Cn2nc(C(F)(F)F)c3c2CCCC3)sc2c1CCCC2	3%	-1
Cc1c(C(=O)Nc2nc3ccccc3s2)oc2c1C(=O)CC(C)(C)C2	-3%	-5
CCOc1ccc(NC(=O)CSc2nc3nc(C)cc(C)n3n2)cc1	-3%	-7
CC(=O)C(Sc1ncnc2scc(-c3ccc(Br)cc3)c12)C(C)=O	11%	3
O=C(NCc1ccco1)c1n[nH]c(=O)c2ccccc12	13%	20
CCCCc1ccc(NC(=S)N2CCN(CCO)CC2)cc1	9%	-2
CC(C)(C)C(=O)OCC#CCSc1nnc(-c2ccc(Br)cc2)o1	-3%	0
Cn1cc(C(c2ccc(O)c(O)c2O)c2cn(C)c3ccccc23)c2ccccc21	-8%	-7

Next structures
SMILES	motility	motility viability
CCOC(=O)CSC1=C(C#N)C(c2ccccc2F)CC(=O)N1 (centres undefined)	15%	2
CCC(=O)C1(Sc2nc3ccccc3[nH]2)CC(C)(C)OC1=O (centres undefined)	-12%	1
Cc1ccc(S(=O)(=O)/C=C/C#CC(C)(C)C)cc1	-10%	4
CC(=O)NC(=S)Nc1ccc(Br)c(C)n1	-1%	-5
O=C(c1ccc(Cl)s1)N1CCN(C/C=C/c2ccccc2)CC1	11%	6
Cc1ccc(C(=O)COC(=O)CNC(=O)Cc2ccccc2)cc1	10%	30
Cc1ccc(Sc2nc([N+](=O)[O-])nn2CC(=O)c2ccc(Cl)cc2)cc1	-5%	-1
CC1CC(C)CN(c2ccc(S(=O)(=O)N3CCOCC3)cc2)C1 (centres undefined)	2%	-1
O=C(NNC(=S)Nc1ccc(F)c(Cl)c1)C1CC1	11%	9
CS(=O)(=O)c1ccc(-c2nnn(CC(=O)NC3CCCC3)n2)cc1	0%	20

15 entries already listed, sorted by length of the SMILES, smallest number first:
SMILES	motility	motility viability
Cc1cc(C)c2ccc(C(=O)O)nc2c1O	31%	10
CC(=O)NC(=S)Nc1ccc(Br)c(C)n1	-1%	-5
CC(=O)c1cnc2nc(C(F)(F)F)nn2c1C	9%	4
O=C(NNC(=S)Nc1ccc(F)c(Cl)c1)C1CC1	11%	9
O=C(NCc1ccco1)c1n[nH]c(=O)c2ccccc12	13%	20
Cc1ccc(S(=O)(=O)/C=C/C#CC(C)(C)C)cc1	-10%	4
CCOC(=O)CSC1=C(C#N)C(c2ccccc2F)CC(=O)N1 (centres undefined)	15%	2
O=C(NC1CCCCC1)c1cc(S(=O)(=O)N2CCOCC2)cs1	-42%	3
CC1CC(C)CN(c2ccc(S(=O)(=O)N3CCOCC3)cc2)C1 (centres undefined)	2%	-1
O=C(Nc1nc2c(s1)CCCC2)C(=O)c1c[nH]c2ccccc12	0%	20
CS(=O)(=O)c1ccc(-c2nnn(CC(=O)NC3CCCC3)n2)cc1	0%	20
Cc1c(C(=O)Nc2nc3ccccc3s2)oc2c1C(=O)CC(C)(C)C2	-3%	-5
Cn1cc(C(c2ccc(O)c(O)c2O)c2cn(C)c3ccccc23)c2ccccc21	-8%	-7
NC(=O)c1c(NC(=O)Cn2nc(C(F)(F)F)c3c2CCCC3)sc2c1CCCC2	3%	-1
Cc1ccc(S(=O)(=O)NC2(C(F)(F)F)C(=O)Nc3c2c(=O)[nH]c(=O)n3Cc2ccco2)cc1 (centres undefined)	1%	-1

(cont.)
SMILES	motility	motility viability
CCOC(=O)c1cnn2c1NC1=C(CCc3ccccc31)C2C(F)(F)F (centres undefined)	14%	1
O=C(N1CCN(c2ccccc2)CC1)C(O)(c1ccccc1)c1ccccc1	-9%	-4
Cc1c(N2C(=O)C3C4C=CC(C5CC45)C3C2=O)c(=O)n(-c2ccccc2)n1C (centres undefined)	-7%	-4
O=C1C(Cl)=C(c2ccc(Cl)cc2)C(=O)N1c1ccc([N+](=O)[O-])cc1	23%	6
CCOc1ccc2c(c1)c1nc3ccccc3nc1n2C	7%	2
O=C(c1cc2cc(Cl)cc(Cl)c2oc1=O)N1CCN(c2cccc(C(F)(F)F)c2)CC1	9%	-3
COC(F)(C(=O)N1CCOCC1)C(F)(F)F (centres undefined)	10%	2
COC1c2cccc3cccc(c23)C1NS(C)(=O)=O (centres undefined)	-4%	-3
Cc1ccc2c(c1)C(=O)CC(c1ccccc1Cl)O2 (centres undefined)	-11%	0
Cc1[nH]n(-c2cccc(Cl)c2)c(=O)c1/C=C1\C=NN=C1c1ccccc1	6%	24
COC(=O)c1ccccc1-c1ccc(/C=C/[N+](=O)[O-])o1	15%	0
COc1ccc(S(=O)(=O)N(CC(=O)NCCSC(C)(C)C)c2ccccc2)cc1	1%	-11
CC1(C)C(=O)OC(c2cccs2)C2(CCCCC2)C1=O (centres undefined)	-11%	3
CC(=O)Nc1c(=O)[nH]n2c(C)cc(C)nc12	-3%	5
COc1cccc(-c2n[nH]c(=S)n2Cc2ccco2)c1OC	6%	-4
Cc1sc2ncnc(SCC(=O)Nc3nsc(-c4ccccc4)n3)c2c1C	0%	19
CCCCNc1ncc2cc3ccccc3nc2c1C#N	2%	-1
CCC(=O)Nc1ccc(Cl)c(NC(=O)c2ccc(-c3ccccc3)cc2)c1	-8%	-3
NC(=O)c1ccccc1CCc1ccccc1	10%	1

Some of the compounds tested; count on the stated rates, not on these rows.
